MT1-MMP promoter = MT1-MMP gene expression reporter suppression – cell-based, luciferase reporter, luminescence (AID 618) | MT1-MMP promoter luciferase reporter cells, luminescence | calls from a first round at 10 µM; hits with a dose series show EC50 in µM | actives 0.62% (n = 87,000);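 active = over half of the reporter light lost at 10 µM or EC50 under 50 µM; inactive = the rest and hits that failed the dose series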;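 note: actives suppress MT1-MMP promoter-driven transcription so potencies describe inhibitors; HT1080 fibrosarcoma cells; overnight exposure; toxic or luciferase-blocking compounds were not removed from the actives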
Hsc70 ATP site = small molecules displacing fluorescent ligand from Hsc70 – biochemical, fluorescence polarization, primary screen (AID 568); Hsc70 fluorescence polarization, probe displacement; higher % means a stronger effect; strong numbers were not always called active; one-dose displacement, % at 20 µM; IC50 in µM for titrated hits; 83,000 tested, under 10 active;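 active = displacement above 50% without optical interference and an IC50 on retest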;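 note: ATPase domain with a fluorescein-tagged ATP probe; 0% = vehicle and 100% = excess ADP; read after one hour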
WNV NS2B-NS3 inh = blocks West Nile virus NS2B-NS3 protease activity; WNV NS2B-NS3 protease, fluorogenic substrate Ex360/Em465; hits give low values; z-score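 (tested at a level between 10 and 100 µM)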; actives 0.18% (n = 65,000); AID 577;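 active = z-score at -3 or under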;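 note: score is relative to mean and spread of the compound wells of a plate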
Target sequence (P06935 1371-1501 limits assumed): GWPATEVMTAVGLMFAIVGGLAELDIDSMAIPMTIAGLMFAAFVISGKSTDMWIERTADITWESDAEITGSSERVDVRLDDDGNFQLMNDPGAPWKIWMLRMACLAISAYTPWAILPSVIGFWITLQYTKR
Target sequence (P06935 1502-1679 limits assumed): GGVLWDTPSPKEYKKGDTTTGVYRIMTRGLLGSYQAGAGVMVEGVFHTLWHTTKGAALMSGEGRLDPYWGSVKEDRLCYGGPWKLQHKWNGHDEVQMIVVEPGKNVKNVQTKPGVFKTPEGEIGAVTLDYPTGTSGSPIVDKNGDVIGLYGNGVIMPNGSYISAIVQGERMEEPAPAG
* = called active by the depositor; i = inactive; x = no result given; + = active, no number. This is a random part of the collection. About 0.8% of those tested had a hit in this group.

SMILES	MT1-MMP promoter	Hsc70 ATP site	WNV NS2B-NS3 inh
CC1(C)CC(NC(=O)COc2ccc3ccccc3c2)CC(C)(C)N1	i	0.2%	x
O=C(COc1ccc(F)cc1)N1CCC(c2ccccc2)C1 (stereo not given)	i	-1.4%	x
C=Cn1nc(C)c2ccccc2c1=O	i	-0.8%	1.27
O=C(CSc1ncn[nH]1)c1ccc2c(c1)OCCO2	i	-8.4%	0.03
Cc1ccc(OCC(=O)n2cnnc2N)c(C)c1	i	-2.3%	-0.32
CC(O)c1cccc(NC2=CC(=O)CC(C)(C)C2)c1 (stereo not given)	i	1.4%	-0.66
COc1ccccc1C(c1nnnn1Cc1ccccc1)N1CCN(c2nc3ccccc3s2)CC1 (stereo not given)	i	-9.7%	0.83
Cc1cc(C)nc(-n2nc(C)cc2NC(=O)c2ccc3c(c2)OCO3)n1	i	6.5%	0.99
CCCC(C)C(=O)Nc1ccc(Cl)cn1 (stereo not given)	i	2.8%	-1.27
CC(C)C(c1nnnn1Cc1ccc2c(c1)OCO2)N1CCN(C)CC1 (stereo not given)	i	-0.2%	x
Cc1ccc(S(=O)(=O)Nc2ccccc2F)cc1C(=O)NCCCN1CCCC1=O	i	-6.8%	-1.86
COc1cccc(C(C(=O)NC(C)(C)C)N(C(=O)CCC(=O)Nc2cc(C)on2)C(C)C)c1OC (stereo not given)	i	-3.6%	0.79
CCC(C(=O)O/N=C(\N)c1cccc(C)c1)c1ccccc1 (stereo not given)	i	-0.4%	x
Cc1ccc(C2CC(=O)c3cnc(N4CC(C)CC(C)C4)nc3C2)cc1 (stereo not given)	i	22.7%	-1.28
CCOP(=O)(OCC)C(C#N)=C1SCN(c2ccccc2)CS1	i	3.2%	x
Cc1onc(-c2ccccc2Cl)c1C(=O)NCCCN1CCOCC1	i	-3.8%	0.91
Cc1cc(N/C=C\C(=O)c2ccc(Cl)c(Cl)c2)no1	i	-0.2%	x
COc1ccc(S(=O)(=O)Cc2ccc(C(=O)NCc3ccccn3)o2)cc1	i	-0.3%	0.36
OCCc1ccc(-c2ccc(Cl)cc2)o1	i	-0.3%	-0.99
CC1CCN(C(=O)CSc2nc3c(cnn3-c3ccccc3)c(=O)[nH]2)CC1	i	3.5%	-0.98
COc1ccc(Cl)cc1C(=O)Nn1c(C)nc2ccccc2c1=O	i	0.5%	0.52
Cc1cc(C)c2nc(N3CCCN(C(=O)c4ccco4)CC3)c(C#N)cc2c1	i	-2.2%	-0.08
O=S(=O)(c1cccc(C(F)(F)F)c1)N1CCN(c2ccccc2)CC1	i	-2.1%	x
CC(C)CC1(C)NC(=O)NC1=O (stereo not given)	i	-3.9%	-0.27
O=C(CSc1ccccn1)Nc1cccc(NC(=O)CSc2ccccn2)n1	i	-0.2%	x
CCOC(=O)c1cnn(-c2cc(C)nc3c(-c4ccccc4)cnn23)c1N	i	1.8%	-0.61
Cc1occc1C(=O)Nc1ccc(S(=O)(=O)N2CCN(C)CC2)cc1	i	9.9%	1.2
CC(=O)c1c(C)nn(C(C)CC(=O)O)c1C (stereo not given)	i	6.0%	0.52
Cc1cc2oc(C(=O)Nc3c(C)n(C)n(-c4ccccc4)c3=O)c(C)c2cc1C	i	-3.7%	0.49
Cc1cc(C)c(C#N)c(SCC(=O)c2cccs2)n1	i	-5.7%	0.55
COc1ccc(C2C(C(=O)N3CCN(c4ccc(OC)cc4)CC3)c3ccccc3C(=O)N2C)cc1 (stereo not given)	i	0.4%	x
O=C(O)CCCC(=O)NCCCc1ccccc1	i	4.8%	1.32
CCCCCCC1CC(C)(/C(C)=N/NC(N)=O)OC1=O (stereo not given)	i	0.7%	x
COc1ccc(S(=O)(=O)Nc2ccccc2OC)cc1C	i	-1.5%	-0.73
CCCNC(=O)CN(c1ccccc1)S(=O)(=O)c1ccc(OC)c(OC)c1	i	-0.3%	x
COc1cc(NS(=O)(=O)c2cc(C)ccc2OC)c(OC)cc1Cl	i	-3.4%	0.69

Profiles, looked up by structure. Screens in order: MT1-MMP promoter, Hsc70 ATP site, WNV NS2B-NS3 inh
Cc1cc2oc(C(=O)Nc3c(C)n(C)n(-c4ccccc4)c3=O)c(C)c2cc1C is entered as i, -3.7%, 0.49
Cc1occc1C(=O)Nc1ccc(S(=O)(=O)N2CCN(C)CC2)cc1 is entered as i, 9.9%, 1.2
Cc1cc(C)c(C#N)c(SCC(=O)c2cccs2)n1 is entered as i, -5.7%, 0.55
CCOC(=O)c1cnn(-c2cc(C)nc3c(-c4ccccc4)cnn23)c1N is entered as i, 1.8%, -0.61

Next part
SMILES	MT1-MMP promoter	Hsc70 ATP site	WNV NS2B-NS3 inh
CCOc1ccc2[nH]cc(C(=O)O)c(=O)c2c1	i	4.7%	-0.52
CCOc1cc(-c2c(C)c(C)nc(N)c2C#N)ccc1O	i	1.2%	0.19
O=C(CN(C1CCCCC1)S(=O)(=O)c1ccc(Cl)cc1)NCc1cccnc1	i	3.3%	0.81
CC#CCCCC(=O)Nc1cc(OC)nc(OC)n1	i	-1.0%	-0.89
O=C1SC(c2ccccc2)=N/C1=C/c1ccco1	i	-2.0%	0.78
O=C(c1ccc(F)cc1F)N(Cc1ccccn1)Cc1ccco1	i	-1.6%	-0.6
Cn1c(-c2cccc(Br)c2)cnc1NCc1cccnc1	i	9.7%	-0.91
O=C(Nc1cccc(F)c1)c1ccc(S(=O)(=O)N2CCCC2)cc1	i	-1.9%	-1.09
CCOC(=O)CS(=O)(=O)c1nc(-c2ccc(F)cc2)cc(C(F)(F)F)n1	+	-1.0%	1.39
CCOC(=O)c1c(C)[nH]c(C(=O)COC(=O)C23CC4CC(CC(Cl)(C4)C2)C3)c1C	i	4.4%	x
Cc1cc(NC(=O)Cc2ccccc2)no1	i	-5.1%	-1.08
O=C(CN1C(=O)CSC1=O)Nc1ccc(N2CCOCC2)cc1	i	-2.8%	0.09
CCOC(=O)c1c(N)sn(-c2ccccc2C)c1=S	i	2.9%	-0.8
O=S(=O)(c1cccs1)N1CCN(c2ccccn2)CC1	i	-0.5%	1.38
CN(c1ccc(C(=O)NCC2CCCO2)cc1)S(C)(=O)=O (stereo not given)	i	2.8%	x
Cc1cc(N2CCOCC2)nc2ccc(NC(=O)CCC(=O)N3CCC(C)CC3)cc12	i	-3.1%	-0.24
Cn1c(C(=O)OC(C(=O)NC2CCCCC2)c2ccccn2)cc2sccc21 (stereo not given)	i	-0.4%	x
CCOc1nc(NC(=O)NS(=O)(=O)Oc2ccccc2Cl)nc(-c2ccccc2)n1	i	-1.4%	x
COC(=O)C(C(=O)N1CCN(C)CC1)C1CCCCCC1 (stereo not given)	i	5.0%	-1.8
COc1ccc(N2CCN(C(=O)c3ccc(C)cc3Cl)CC2)cc1	i	-4.1%	-0.86
Cc1ccc(C)c(N2CCN(C(=O)C3CCN(c4nnc(N5CCCC5=O)s4)CC3)CC2)c1	i	0.1%	-0.28
CCCc1cc(C(=O)NCCc2ccccc2)no1	i	-2.9%	0.97
CC(C)Oc1cccc(-c2nnc(SCC(=O)Nc3ccc4c(c3)OCCO4)n2N)c1	i	-1.1%	x
COc1ccc(NC(=O)Cn2cccc2)cc1Cl	i	2.0%	0.23

The list goes on (6 carried over from the part before).
SMILES	MT1-MMP promoter	Hsc70 ATP site	WNV NS2B-NS3 inh
COC(=O)C(C(=O)N1CCN(C)CC1)C1CCCCCC1 (stereo not given)	i	5.0%	-1.8
COc1ccc(N2CCN(C(=O)c3ccc(C)cc3Cl)CC2)cc1	i	-4.1%	-0.86
Cc1ccc(C)c(N2CCN(C(=O)C3CCN(c4nnc(N5CCCC5=O)s4)CC3)CC2)c1	i	0.1%	-0.28
CCCc1cc(C(=O)NCCc2ccccc2)no1	i	-2.9%	0.97
CC(C)Oc1cccc(-c2nnc(SCC(=O)Nc3ccc4c(c3)OCCO4)n2N)c1	i	-1.1%	x
COc1ccc(NC(=O)Cn2cccc2)cc1Cl	i	2.0%	0.23
Cc1c(C(=O)NCC2COc3ccccc3O2)oc2ccc(S(=O)(=O)N3CCOCC3)cc12 (stereo not given)	i	-8.5%	x
Cc1cccc(-n2c(SCc3cc(=O)n4ccsc4n3)nc3ccccc32)c1	i	14.4%	0.27
COc1ccc(C(=O)Nc2cccc(-c3nnc(-c4ccco4)o3)c2)cc1	i	-1.2%	x
Cc1nc2cc(-c3cccc(F)c3)nn2c(C)c1CCC(=O)NC(C)CCc1ccco1 (stereo not given)	1.12µM*	1.0%	0.2
O=C(Nc1ccon1)c1ccc(Cl)s1	i	11.1%	-1.1
Nc1ccc2c(c1)-c1ccccc1S(=O)(=O)N2	i	-1.0%	0.26
CCCc1cc(C(=O)OC)c(NC(=O)OCC)s1	i	-5.1%	-0.35
COc1cc(NC(=O)c2noc3c2CCC3)c(OC)cc1Cl	i	-2.6%	-0.98
COc1ccc(F)cc1S(=O)(=O)N1CCCC(C)C1 (stereo not given)	i	-2.2%	x
O=c1[nH]c(CSc2nnc(COc3ccccc3)n2-c2ccccc2)nc2ccccc12	i	-5.4%	-0.57
CS(=O)(=O)c1cccc(C(=O)NCc2ccccc2)c1	i	-3.8%	-0.8
CC(C)C[C@H](NC(=O)OC(C)(C)C)C(=O)N/N=C/C1=Cc2ccccc2OC1C (stereo not given in full)	i	7.0%	x
CCc1ccc(-c2csc3[n+]2CCN3C(C)=O)cc1	i	2.5%	x
NC(=O)C1CCN(C(=O)CN(c2cccc(C(F)(F)F)c2)S(=O)(=O)c2ccccc2)CC1	i	0.1%	-0.43
Clc1cccc2sc(N3CCN(c4ccccc4)CC3)nc12	i	6.3%	-0.79
NC(=O)c1ccc(N2CCCCC2)c(N2C(=O)C3CC=CCC3C2=O)c1 (stereo not given)	i	2.1%	x
CCOC(=O)C1=C(C)NC(C)=C(C(=O)OCC)C1c1ccccn1	i	0.3%	0.42
O=C1c2ccccc2-c2onc3ccc(Oc4ccccc4)c1c23	i	-28.3%	x
O=C(NC12CC3CC(CC(C3)C1)C2)c1ccc(S(=O)(=O)N2CCOCC2)cc1	i	3.2%	x
CCOC(=O)COn1c(=O)c(=O)n(O)c2ccccc21	i	-2.6%	0.04
Cc1[nH]c2ccccc2c1C(=O)CN1CCSCC1	i	-4.9%	1.13
COCCNS(=O)(=O)c1cc(OC)c(Cl)cc1Cl	i	7.0%	1.1
COc1ccccc1NC(=O)CCn1cccc1	i	-2.1%	x
COc1ccc(-c2cc3nc(C)cc(N)n3n2)cc1	1.73µM*	-0.8%	x
COc1ccc(NC(=O)CC#N)cc1OC	i	-6.3%	x
Cc1cc(C)cc(NC2=NC3(CCCCC3)N=C(N)N2)c1	i	3.2%	1.59
Cc1ccc(S(=O)(=O)N2CCC(C(=O)N3CCN(Cc4ccccc4)CC3)CC2)cc1	i	-2.9%	-0.32
COC(=O)c1ccccc1S(=O)(=O)Nc1ccc(OC)nc1	i	-6.3%	-0.26
O=C(Nc1cccnc1)c1c(F)c(F)c(F)c(F)c1F	i	3.8%	0.42
COc1cc(C2C(C#N)=C(N)Oc3cc(N(C)C)ccc32)cc2c1OCO2 (stereo not given)	+	-36.2%	1.5
COc1ccc(CN(Cc2ccccn2)S(=O)(=O)c2ccc(-n3cnnn3)cc2)cc1	i	-4.1%	-0.77
COc1ccc(Cl)cc1N1C(=O)C2CCCN2C1c1ccc(F)c(F)c1 (stereo not given)	i	2.3%	0.68
O=C(NCC1COc2ccccc2O1)c1ccc(NC(=O)c2ccco2)cc1 (stereo not given)	i	-3.1%	-0.2
Cc1ccc(CC(NC(=O)c2ccccc2)C(=O)NC(C)C(=O)O)cc1 (stereo not given)	i	0.9%	x
O=C1c2ccc(Oc3ccc4c(c3)C(=O)N(CCCO)C4=O)cc2C(=O)N1CCCO	i	0.2%	2.03
COc1ccc(C(c2sc3nc(C)nn3c2O)N2CCC(C(N)=O)CC2)cc1OC (stereo not given)	i	-2.3%	-1.07
CCCCCCCC1CC(CSc2ncn[nH]2)OC1=O (stereo not given)	i	3.1%	x
CCC(C)(C)NC(=O)C(c1ccccc1F)N(C(=O)c1ccn[nH]1)c1ccccc1 (stereo not given)	i	-3.2%	x
CCOC(=O)N1CCN(C(=O)CN(c2ccc(Oc3ccccc3)cc2)S(C)(=O)=O)CC1	i	0.9%	-1.47
COc1ccc(CCNC(=O)CSc2nnc(CNc3ccc(Cl)cc3)o2)cc1OC	i	-0.6%	0.38
CC1(C)Oc2ccc(NC(=O)C3COc4ccccc4O3)cc2O1 (stereo not given)	i	0.9%	-0.82
O=C(C1CCCO1)N1CCN(C(c2ccccc2)c2ccccc2)CC1 (stereo not given)	i	-3.5%	-0.66
Cn1nc(-c2ccccc2)c(-c2nc(-c3cccc(C(F)(F)F)c3)no2)c1Cl	i	1.6%	x
Cc1cnc(C(=O)Nc2nnc(C3CC3)s2)cn1	i	-4.3%	x
COc1ccc(-c2nnc3c4ccccc4c(C)nn23)cc1	i	8.4%	x
N=c1sccn1CC(=O)Nc1cccc(Oc2ccccc2)c1	i	1.5%	-0.79
Cc1ccc2nc(-c3sc4nc(C)cc(C)c4c3N)[nH]c2c1	i	-6.6%	x
CCc1cc(C(=O)c2ccccc2OC)c(N)s1	i	-2.0%	0.25
Cc1nc(=O)c(-c2ccccc2)c(C)n1CCO	i	-4.2%	x
CCOC(=O)C1Cn2c(nc3c(c2=O)C(C)(CC)Cc2ccccc2-3)S1 (stereo not given)	i	-4.2%	-0.52
O=C(OCC(=O)c1cccs1)c1ccccc1	i	-2.7%	0.95

Bioassay records deposited in PubChem BioAssay by several laboratories.
